From PubChem
Mtb hypoxia inh = PubChem AID 1159583; M. tuberculosis hypoxia-regulated fluorescent reporter, fluorescence; fluorescence inhibition, % (no concentration beside the values); 0.1% of 300,000 active;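 active = 35 to 45% if threefold the growth effect, above 45% if 1.5-fold the growth effect; inactive = the rest, general growth blockers included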;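 also: wells of about 50 µL received 100 nL stock; 0% = vehicle wells and 100% = reference inhibitor wells; whole bacteria with a GFP reporter of the hypoxia response; strong numbers were not always called active; many hits fall short of the cut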
BJeLR viability = MLPCN primary cell-based screen for lethality selective to Ras in HRASV12 cells. BJeLR (HRASV12) viability, CellTiter-Glo ATP luminescence, 48 h; reference of the scale not given here. inhibition, % (no concentration beside the values). 0.17% of 300,000 active;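 active = replicate mean above 50%; inconclusive = above 50% but judged a plate artefact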;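 also: 50 nL library stock added to about 25 µL; numbers are from one replicate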
ugtP null kill = growth inhibition of ugtP-null S. aureus, primary screen, RN4220 ugtP deletion, OD600; 16 h; some inactives read as strong as hits; 0.54% of 330,000 active; growth inhibition, % (test concentration not listed);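 active = z-score under -3 and OD600 up to 0.15 on both plates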;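 also: plate controls were untreated wells for no effect and antibiotic for full effect; wells of about 80 µL received 100 nL stock; the first replicate is given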
Sa RN4220 lethal = growth inhibition of S. aureus RN4220, primary screen, OD600. inhibition, % (no concentration beside the values). 16 h. AID 1259311, 2017. 0.33% of 330,000 active;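 active = z-score of -3 or lower and OD600 up to 0.18 on both plates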;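 also: plate controls were untreated cells for no effect and reference antibiotic for full effect; stock transfer was 100 nL into about 80 µL; one replicate is shown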
PrP UTR inh = inhibition of PrP 5' UTR reporter expression; cell-based PrP 5' UTR mRNA reporter, plate reader; inhibition, % (concentration not given with the values); 0.35% of 340,000 active;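 active = every replicate at 50% or more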;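 also: 0 = median of the neutral control wells; tested in H4 reporter cells; numbers are from one replicate; inactives centre near -14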
Autofluor counter = compound fluorescence in toxin protease inhibitor counterscreen. 3.1% of 360,000 active. compound autofluorescence counterscreen, microsphere flow cytometry; stronger effect = higher value. fluorescence intensity (test concentration not listed);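 active = at least 3 SD above the mean of all compounds, about 16000 in these data; inconclusive = too few beads counted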;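 also: 100 nL of 1 mM stock went into each well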
Mtb hypoxia inh growth = recorded beside Mtb hypoxia inh, whose call it bears; growth inhibition, %; measured here: M. tuberculosis growth (absorbance);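 0% = vehicle and 100% = reference antibiotic; read after six days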
Starred values were filed as active, the others as inactive; ? = inconclusive; nt = no result given.

structure,BJeLR viability,PrP UTR inh,Mtb hypoxia inh,ugtP null kill,Autofluor counter,Sa RN4220 lethal,Mtb hypoxia inh growth
Cc1ccc(NC(=O)CCS(=O)(=O)c2ccc(Br)s2)cc1,-2,-16,2,13,3610,3.0,6
CC(C)N(Cc1nc(-c2ccccc2)no1)C(=O)CN(C)S(=O)(=O)c1ccccc1,-9,16,nt,7,2045,-0.7,nt
C/C(CC(C)(C)C1CCCCC1)=N\NC(N)=S,-19,-8,nt,nt,10678,nt,nt
CC(OC(=O)c1ccc(Br)o1)C(=O)Nc1ccc2c(c1)OCCO2 (configuration not stated),nt,nt,7,11,?,4.5,-2
Cn1c(O)c(C(C#N)=C2N=c3ccccc3=N2)c2ccccc21,-10,-11,22,-9,10733,7.2,25
COc1ccc(CCNC2CCCCC2)cc1,1,-34,9,7,4509,4.0,14
COc1ccc(CCNC(=O)CSCc2ccc(Br)cc2)cc1OC,-1,-13,20,-1,3923,4.0,10
CCCN1C(=O)c2[nH]nc(-c3cc(Cl)c(C)cc3O)c2C1c1ccc(O)c(OC)c1 (configuration not stated),9,-10,4,-6,4707,-3.6,-2
O=C(CN1C(=O)C(=O)N(C2CCCC2)C1=O)NCCc1ccc(F)cc1,nt,-10,10,-3,3952,-1.4,3
CC(C)(C)C(=O)CCN1C(=O)C2(OCCO2)c2ccccc21,-8,-9,nt,7,4416,1.9,nt
O=C(N/N=C/c1cc([N+](=O)[O-])ccc1O)C1CCCCC1,4,-5,nt,nt,2171,nt,nt
OCCNC(=S)Nc1cc(Cl)cc(Cl)c1,-3,-14,1,-9,5584,0.6,-1
COc1ccc(CC(=O)Nc2cccc3c2CCCC3)cc1,-3,-11,6,15,3059,1.5,-4
Nc1cc(C(=O)OCC(=O)N2CCN(C(=O)COC(=O)c3ccc(Cl)c(N)c3)CC2)ccc1Cl,nt,-36,-7,-3,5161,3.9,-6
c1ccc(OCC2CCNCC2)nc1,10,2,18,7,4170,3.5,5
COc1ccc(Cn2c(=O)oc3ccc(C)cc32)cc1,-2,-15,nt,nt,3491,nt,nt
Cc1nnc(CN(C)C(=O)CC2C(=O)NCCN2Cc2ccccc2C)o1 (configuration not stated),-9,-14,3,9,4193,4.8,-6
Cc1cc(C)cc(-n2c(C)cc(/C=C3\C(=O)NC(=O)N(C)C3=O)c2C)c1,-5,-13,7,1,2547,1.2,0
CCN(CC)C(=O)C1CCN(Cc2cccc(OCc3ccccc3)c2)CC1,4,-41,nt,10,4210,-0.9,nt
CC(C)Cc1nnc(NC(=O)c2ccc(N3CCCC3=O)cc2)s1,-5,-6,nt,nt,5524,nt,nt
CC1=CC(=O)OC2CC3OC4C[C@@H](C)C5OC6CC7O[C@]8(C)C/C=C\C9OC%10CC%11OC(CC(C)CO)CC(O)[C@]%11(C)OC%10CC9OC8C[C@]7(C)O[C@]6(C)CCC5OC4C[C@]3(C)OC12 (some centres not stated),7,-10,0,-5,3528,-13,14
Cc1ccc(-n2cnc3c(=O)[nH]cnc32)cc1,nt,-19,4,0,4083,5.4,3
COc1ccccc1C/C(N)=N/OC(=O)COc1cc(C)cc(C)c1C,-8,-8,nt,nt,2006,nt,nt
CCOc1cc(C=NNc2nncc(-c3ccccc3)n2)ccc1O,nt,nt,5,-22,nt,5.0,7
O=C(c1ccc(CS(=O)c2cccc(Cl)c2)o1)N1CCN(c2ccccn2)CC1 (configuration not stated),18,-19,15,2,6768,4.1,4
Cc1ccc(C)c(S(=O)(=O)N2CCCOC2CNC(=O)C(=O)NC2CCCC2)c1 (configuration not stated),-7,-33,8,2,5300,2.4,5
O=C(CN1C(=O)COc2ccccc21)NCc1ccc(C(=O)O)cc1,1,-6,-3,4,22844*,4.0,-3
C=CCNc1ncnc2c1cnn2-c1ccc(OC)cc1,1,-36,8,2,16362*,2.4,10
COC(=O)[C@@]1(Cc2ccc(F)cc2)[C@H]2c3cc(C(=O)N(C)C)n(C[C@H](O)CO)c3C[C@H]2CN1C(=O)c1ccccc1,nt,-14,2,3,3849,-5.3,-6
COc1ccc(C=NNc2cc(C)nc3ccc(OC)cc23)c(OC)c1,nt,nt,nt,-9,nt,7.8,nt
O=C(NCc1ccncc1)C(=O)N/N=C/c1ccc(OCc2ccccc2)cc1,5,-23,nt,nt,3366,nt,nt
NC(=O)C1(N2CCCCC2)CCN(C2CC(=O)N(Cc3cccs3)C2=O)CC1 (configuration not stated),4,-18,nt,2,3311,1.2,nt
Cc1ccc(C)c(C=NNc2nc3ccccc3c(=O)n2O)c1,nt,nt,-4,-1,nt,11,-3
CCc1ccc(C(N)=S)cc1,2,-12,7,4,4426,2.9,-2
COC(=O)c1ccc(/C=C/c2ccc3cccc(OC)c3n2)cc1,-12,-22,8,-11,2153,13,8
O=C1NC2=C(C(=O)c3ccccc32)C(c2ccccc2)N1 (configuration not stated),-9,-40,5,-12,8602,5.0,10
Cc1cc(N)n(-c2cc(C)c3ccccc3n2)n1,3,-58,9,9,4318,9.4,9
O=C(CCCNS(=O)(=O)c1cccc2nsnc12)NCc1ccc(Cl)cc1,-5,-7,19,9,3384,2.4,5
Cc1ccc(NC(=O)c2cc3c(s2)CCCC3)cc1,2,-130,5,11,3603,19,4
C/C(=N\Nc1nc(Cl)c(Cl)cc1Cl)c1ccc(S(=O)(=O)NCc2ccco2)cc1,3,-8,nt,nt,2351,nt,nt
O=C(Nc1ccc(Cl)cc1)Nc1cccnc1,6,-15,11,-7,5457,-4.8,5
CCN1C(=O)[C@H]2[C@@H](c3ccc(-c4ccc(OC)cc4)cc3)N[C@@](Cc3ccccc3)(C(=O)OC)[C@H]2C1=O,-3,-22,nt,nt,4209,nt,nt
O=C(CSc1nc2ccccc2[nH]1)c1c[nH]c2ccccc12,0,-23,-1,-1,3433,5.3,6
COc1ccc(OCCC(=O)OCC(=O)NC(=O)NC2CCCCC2)cc1,15,-7,1,9,5884,4.8,-5
O=C(O)c1ccc(NC(C(=O)c2ccccc2)c2ccccc2)cc1 (configuration not stated),nt,-3,1,-1,3097,0.3,3
Cc1ccc2cc(CN(CCCO)S(=O)(=O)c3ccccc3F)c(=O)[nH]c2c1C,-3,8,-4,-4,4531,-3.9,-5
NC(=NOC(=O)c1ccco1)c1cccc([N+](=O)[O-])c1,nt,nt,13,9,nt,8.3,7
CC12CCC(=O)N1C(C(=O)Nc1cc(C(F)(F)F)ccc1N1CCOCC1)CS2 (configuration not stated),0,-11,8,-2,?,3.6,2
N#Cc1ccccc1NC(=O)CSc1nccn1CCc1ccccc1,-10,-51,6,3,10288,2.1,6
CC(C)CCN1CCN(C2CSCCSC2)CC1CCO (configuration not stated),7,5,-1,7,3264,3.6,6
COc1ccccc1NC(=O)CNc1ccc(F)c(Cl)c1,3,-88,5,-5,2098,5.3,10
COCC1CCN(Cc2cn(-c3ccccc3F)nc2-c2cc(C)sc2C)CC1,1,-45,3,9,4240,4.5,2
O=[N+]([O-])c1ccc(C=NNc2ccnc3cc(Cl)ccc23)o1,nt,nt,-3,8,nt,5.2,15
O=C(O)c1ccc(-c2sc(Nc3ccccc3)n[n+]2-c2ccc(F)cc2)cc1,-4,-19,8,2,4164,-14,12
O=C(CNC(=O)c1ccc(S(=O)(=O)N2CCCC2)cc1)N/N=C/c1ccc(Cl)cc1,-2,-31,nt,nt,9154,nt,nt
CCCCCc1ccc(OCCC[n+]2ccccc2)c(CCCCC)c1,20,-12,nt,100*,6274,99*,nt
Cc1onc(-c2c(Cl)cccc2Cl)c1C(=O)ONC(=O)c1ccccc1,3,-13,12,-3,5819,1.9,18
Cc1ccc(NC(=O)CCc2nc3sc4c(c3c(=O)[nH]2)CCCC4)nc1,9,-28,0,-1,6372,2.9,-4
CN1CCN(c2c[nH]c(=O)[nH]c2=O)CC1,-8,-1,nt,2,2909,4.5,nt
COc1ccc(CNC(=O)c2ccc(Cl)c(S(=O)(=O)N3CCOCC3)c2)cc1OC,nt,-16,9,4,3535,5.6,7

New compounds follow:
structure,BJeLR viability,PrP UTR inh,Mtb hypoxia inh,ugtP null kill,Autofluor counter,Sa RN4220 lethal,Mtb hypoxia inh growth
CCOP(=O)(/C(C#N)=C(/O)c1ccccc1)c1ccccc1 (configuration not stated),-8,-19,20,1,5284,4.6,9
COc1cccc2c1Oc1ncccc1N(C(=O)CCC(=O)NCc1cccc(C)c1)C2,7,-5,8,1,5732,1.7,2
Cc1ccc(NC(=O)CN2CCOCC2)cc1C,11,-14,5,12,3929,7.9,3
CN1CCc2c(OCc3ccc(F)cc3)cccc2C1=O,3,-12,18,9,3938,-6.4,0
CCOC(=O)C(O)(c1ccc(N(C)C(=O)c2ccc(Cl)c(Cl)c2)cc1)C(F)(F)F (configuration not stated),-15,-21,-4,-9,2282,7.5,-1
CCOC(=O)CCCc1ccc(C(C)=NNC(N)=S)cc1,nt,nt,nt,0,nt,3.7,nt
CN1CCN(c2nc([N+](=O)[O-])nn2C)CC1,-7,-16,2,13,2602,-1.4,6
COC(=O)c1c(C)[nH]c(C=NNc2ccccc2)c1C,nt,nt,1,-1,nt,-1.3,-8
CSc1nc2c(c(=O)[nH]1)C(c1cccc(Cl)c1)CC(=O)N2 (configuration not stated),1,-28,13,2,5053,2.8,8
Cc1cccc2c(N=O)c(O)[nH]c12,3,-7,11,-8,4379,5.8,12
CCCOc1cccc(NC(=O)c2cc(C)oc2C)c1,-5,-23,nt,22,4916,1.1,nt
CC(=NNC(=O)Cc1c(C)[nH][nH]c1=O)c1ccc2ccccc2c1,nt,nt,9,1,nt,4.6,11
O=S(=O)(N1CCCCC1)N1CCN(c2ccc(F)cc2)CC1,4,-37,15,15,8789,4.5,10
Cc1ccc2cc(CCNC(=O)c3cccc([N+](=O)[O-])c3)c(=O)[nH]c2c1,-5,-2,14,2,2488,3.7,7
CC(=O)Oc1ccc(N2C(=O)C3C(C2=O)C2C=CC3C23CC3)cc1[N+](=O)[O-] (configuration not stated),2,-23,nt,nt,2652,nt,nt
O=C(COC(=O)c1ccc(S(=O)(=O)N2CCCC2)cc1)Nc1cccc(Br)c1,nt,nt,13,7,nt,4.9,1
NS(=O)(=O)c1ccc(CCNC(=O)c2cc(-c3ccccc3)nc3ccccc23)cc1,2,-12,5,9,2560,3.7,0
CCC1(c2ccccc2)NC(=O)N(CC(=O)NCCN2C(=O)S/C(=C\c3cccnc3)C2=O)C1=O (configuration not stated),2,-20,0,0,6173,2.5,3
CCc1cccc(C)c1N1C(=O)CC(C)(C)CC1=O,-3,-17,6,7,4660,1.7,4
COc1ccc(-n2ncc3c2CC(C)(C)CC3NC(=O)CCn2nc(C)cc2C)cc1 (configuration not stated),8,6,-3,-6,5379,-0.2,9
COCCCn1c(=O)c2ccccc2n(CC(=O)NCCC2=CCCCC2)c1=O,3,-16,5,4,4946,-2.5,9
COc1ccc(OCCSc2nnc(Cc3cccc4ccccc34)n2N)cc1,-3,-12,3,4,2014,-2.9,7
O=C(Cc1ccc(S(=O)(=O)N2CCOCC2)s1)NCCC(c1ccccc1)c1ccccc1,2,-32,-1,20,3946,0.2,-5
O=C(O)c1ccc(/C=N/NC(=O)c2ccc3c(c2)OCCO3)cc1,0,-2,nt,nt,5724,nt,nt
CC(=O)c1ccc(N2CCN(C(=O)c3cc4c(-c5ccccc5F)nn(C)c4s3)CC2)cc1,-4,1,2,-14,4705,-4.9,4
Cc1cc2ncn(N=Cc3ccc4c(c3)OCO4)c2cc1C,nt,nt,8,4,nt,-7.1,2
CCCS(=O)(=O)N1CCN(CCCc2ccccc2)CC1,-8,-6,15,2,12743,1.7,17
CN(C(=O)COc1ccccc1C(=O)NCCOc1ccccc1)c1ccccc1,18,-28,9,0,2635,3.1,8
CC(C)NC(=S)N=Nc1c(O)[nH]c2ccc([N+](=O)[O-])cc12,-2,0,nt,nt,4385,nt,nt
